Menin-MLL FL inh: menin-MLL binding inhibition, fluorescein peptide. Fluorescence polarization, fluorescein-MLL peptide displacement from menin. AID 1766. 290,000 tested, under 10 active. FP activity change, % at 61.4 µM; inconclusive = falling polarisation curve, or a change in total fluorescence; inactive = total fluorescence flat and polarisation flat or rising; no compound was filed as active; the % refers to the polarisation; negative = inhibition;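 also: % of control where 0% means no effect; inhibitors lower the polarisation; unlabelled MLL peptide was the positive control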
The depositor's hits bear a star; ? = inconclusive; & = joins results of further samples; [ ] = dose if it differs, or a comment.

Molecule,Menin-MLL FL inh
COc1c(O)cccc1O,-3.0
CC(=O)N1CCC2(CC1)CCN(c1cccc(-c3ccccc3)c1)CC2,-1.1
CN(CCc1ccc(Cl)c(Cl)c1)CCN1CCCCCC1,-9.6
COc1cccc(C(=O)N2CCN(C3CCN(Cc4ccccc4)CC3)CC2)c1,3.4
O=C(c1cnccn1)N1CCC2(CCCN(c3ccccc3)C2)CC1,5.3
CCOC(=O)OCC1OC(C#Cc2ccc(Br)cc2)C=CC1OC(=O)OCC (stereo not given),3.0[11.7 µM]
C[C@@]12CCC(O)C[C@H]1CCc1ccccc12 (stereo not given in full),-3.7
CNc1ncnc2ccc(-c3ccccc3C#N)cc12,-5.3
O=C(/C=C/c1ccc(Br)o1)Nc1nnc(C2CC2)s1,14
O=C(c1cccc(F)c1)N1CCC2(CC1)CCN(c1ccccn1)CC2,-1.2
CCN(CC)CCNC(=O)c1c(C)[nH]c(/C=C2\C(=O)Nc3ccc(F)cc32)c1C,?
CC(=O)N1[C@H](Cc2ccccc2)C=C[C@]1(C)C(=O)O,-1.3
COc1cccc(Cn2c(=O)cnc3cnc(N(C)C)nc32)c1,3.0
COc1ccccc1-c1ccc2ncnc(NCCNC(C)=O)c2c1,2.0
COc1ccccc1CNc1ccnc(-c2ccc3c(c2)OCO3)n1,-2.2

(listing goes on)
Molecule,Menin-MLL FL inh
CCCCCCCCCCCCCCOS(=O)(=O)O,1.1
Cc1[nH][nH]c(=O)c1C(c1ccc(-c2ccc(Cl)cc2Cl)o1)c1c(C)[nH][nH]c1=O,2.3
CC1(C)Oc2cc3c(cc2O1)OC(C)(C)O3,1.0[11.7 µM]
CC(C)(C)Nc1oc(-c2ccccc2)nc1-c1cccc2ccccc12,1.4
COCCn1c(=O)c(C)nc2cnc(Nc3ccccc3)nc21,8.3
CC(C)=NOCc1ccc(-c2cn([C@@H]3COC[C@H]3O)nn2)cc1,1.8
COc1cccc([C@@H]2Oc3ccc(OC)cc3C(=O)[C@H]2OC(=O)NS(=O)(=O)c2ccc(F)cc2)c1,5.5
CC/C(=C(/CC)c1ccc(OP(=O)(O)O)cc1)c1ccc(OP(=O)(O)O)cc1,-2.4
Cc1nnc(NC(=O)CSc2nnc(Cc3cccn3C)n2-c2cccc(C)c2C)s1,5.0
COC(=O)[C@@H]1CC[C@H](C)[C@@H](c2ccc(C)cc2)N1C(=O)c1ccc(/C=N/OC[C@@H](O)[C@H]2O[C@@H]3OC(C)(C)O[C@@H]3[C@H]2O)cc1,1.3
CCCc1nc(C(C)(C)O)c(C(=O)OCc2oc(=O)oc2C)n1Cc1ccc(-c2ccccc2-c2nn[nH]n2)cc1,-0.3
CCCCC/C=C\C/C=C\C/C=C\CCCCC(=O)NC(C)C(=O)O (stereo not given),-2.2
CC(C)(C)C(C(Oc1ccc(Cl)cc1)n1cncn1)n1nnnc1C(c1cccc(Cl)c1)N1CCCCC1 (stereo not given),6.1
NC(Cc1cc(I)c(Oc2cc(I)c(O)c(I)c2)c(I)c1)C(=O)O (stereo not given),-1.2
Cc1noc(C)c1-c1ccc2ncnc(Nc3ccccc3)c2c1,1.9

The list goes on:
Molecule,Menin-MLL FL inh
CC1(C)Cc2nc3sc4c(N5CCCC5)nnnc4c3cc2CO1,-0.2
O=C(Nc1ccccc1)[C@@]12C[C@@H]1/C(=N/O)c1ccccc1O2,14
NC(=S)NS(=O)(=O)c1ccc(N)cc1,-15
O=C(O)c1ccc(N[C@@H]2OC[C@@H](O)[C@@H](O)[C@@H]2O)cc1,-2.2
Cn1c(=O)c(-c2cc(F)cc(F)c2)nc2cncnc21,2.4
Cc1cc2c(c(=O)n1-c1ccccc1)C1O[C@](c3ccsc3)(Cc3ccccc31)O2,13[11.7 µM]
C[C@H](CCCC(C)(C)O)[C@H]1CC[C@H]2[C@@H]3CC=C4C[C@@H](O)CC[C@]4(C)[C@H]3CC[C@]12C,1.9
CCN1CCN(Cc2ccc3c(c2)Cc2ccccc2-3)CC1,-2.0
COCCn1c(=O)c(-c2cccs2)nc2cnc(Oc3ccc(OC)cc3)nc21,-1.9
CCCNC(=O)OC[C@@H]1O[C@H](CCON=C(C)C)C=C[C@@H]1Oc1ccc(OC)cc1,5.6[11.7 µM]
CC(C)NC(=O)N1CC2(CCN(C(=O)c3ccncc3)CC2)C1,-2.2
COc1ccc(NC(=S)Nc2cc(S(=O)(=O)N3CCCCC3)ccc2OC)cc1,-1.6
CCOC(=O)c1cc2c(=O)n3ccccc3nc2n(Cc2ccccc2Cl)c1=N,5.4
COc1ccc(C(=O)N2CCC3(CCN(CC(C)C)CC3)CC2)cc1,1.6
N#Cc1cc2sc3nc4ccccc4n3c2cc1C#N,2.7

Next section.
Molecule,Menin-MLL FL inh
c1ccc(CNc2ncnc3ccc(-c4cccnc4)cc23)cc1,-0.1
CO/N=C1/[C@H]2O[C@@H]2[C@@H](O)[C@H]2[C@H]1CCn1c(=O)n(-c3ccccc3)c(=O)n12,-5.5[11.7 µM]
c1ccc(-c2nc(-c3cccnc3)n[nH]2)cc1,-0.8
CNc1nc(-c2cccc(C#N)c2)nc2ccccc12,-1.5
O=C(c1ccco1)N1CCC2(CC1)CN(Cc1cc(C(F)(F)F)cc(C(F)(F)F)c1)C2,-1.1
CCOC(=O)c1ccc2c(c1)nc(COc1ccccc1C#N)n2CC,-0.4
Cc1noc(C)c1-c1ccc2ncnc(NCc3ccc4[nH]ccc4c3)c2c1,-0.1
C=N[C@H](C(=O)N[C@@H]1C(=O)N2[C@@H]1SC(C)(C)[C@@H]2C(=O)O)c1ccccc1,-6.5[24.8 µM]
N=c1ccn2c(n1)O[C@@H]1[C@H](O)[C@H](CO)O[C@@H]12,-8.2
O=C(c1ccco1)N1CCC2(CC1)CCN(c1ccccn1)CC2,-4.4
O=C1C2C3C=CC(C3)C2C(=O)N1CNc1ccc(O)cc1 (stereo not given),-1.4
COCCNc1nc(-c2cccc(OC)c2)nc2ccccc12,1.0
CN1CCN(c2ccnc(-c3ccoc3)n2)CC1,-8.5
CCOC(=O)c1c(N)c(C#N)nn1-c1ccccc1C(=O)OC,0.4
FC(F)(F)c1ccccc1-c1ccc2ncnc(NC3CC3)c2c1,2.6

Next part.
Molecule,Menin-MLL FL inh
Cc1ccc(S(=O)(=O)N(CC(=O)NCCSCc2ccco2)c2ccc(F)cc2)cc1,6.2
O=C(O)Cc1c(Cl)ccc(Cl)c1Cl,1.6
COc1ccc(CNc2ccnc(-c3cccc(NS(C)(=O)=O)c3)n2)c(OC)c1,-9.9
Cn1cc(C(F)(F)F)nc1-c1ccc(OC[C@@H](O)CNCCOc2ccc(O)c(C(N)=O)c2)cc1,-1.6
Cn1c(=O)c2c(SCc3ccccc3)nc(-c3ccco3)nc2n(C)c1=O,0.3
COc1cc(C=O)c([N+](=O)[O-])cc1OC,0.5
CO[C@H]1COC(=O)C/C=C\[C@H](C)[C@@H](NS(=O)(=O)c2ccc(C)cc2)COC(=O)C/C=C\[C@@H]1C,-3.9&0.0[11.7 µM]
CC(C)C[C@H](NC(=O)[C@H](CO)NC(=O)[C@@H]1CCCN1C(=O)[C@H](Cc1ccc(O)cc1)NC(=O)[C@H](CC(C)C)NC(=O)[C@H](CC(C)C)NC(=O)[C@@H]1CCCN1C(=O)[C@@H](NC(=O)[C@H](CO)NC(=O)[C@H](CO)NC(=O)[C@H](CO)NC(=O)[C@H](CO)NC(=O)[C@@H]1CCCN1C(=O)[C@@H](NC(=O)[C@@H](N)CO)C(C)C)[C@@H](C)O)C(=O)N[C@@H](C)C(=O)N[C@@H](CC(C)C)C(=O)N1CCC[C@H]1C(=O)N[C@@H](C)C(=O)N1CCC[C@H]1C(=O)O,-2.7
CC1(OC(=O)CCc2ccccc2)C(=O)C=C2C=C(c3ccc(C#N)cc3)OC=C2C1=O (stereo not given),6.9
COCC(=O)N1CCC2(CCCN(C(=O)Nc3ccc(OC)cc3)C2)CC1,0.6
Nc1ncnc2nc(Cl)[nH]c12,-0.5
Cn1/c(=N/N=C/c2ccc([N+](=O)[O-])cc2)sc2ccccc21,?
COc1cc(OC)cc(C(=O)OCCNC(=O)Cn2cnc3c2c(=O)n(C)c(=O)n3C)c1,0.0
CN(C)C(=O)c1ccc(-c2cncnc2Nc2ccccc2)cc1,4.8
COc1cccc(-c2nccc(NCc3ccccc3)n2)c1,0.4

Later entries:
Molecule,Menin-MLL FL inh
CCc1cc(=O)oc2cc(OCC(=O)N3CCc4ccccc43)ccc12,1.6
COc1ccccc1CNc1ncnc2ccc(-c3c(C)noc3C)cc12,0.8
Cc1ccc(O)c(C(CCN(C(C)C)C(C)C)c2ccccc2)c1 (stereo not given),-1.9
CN(C)CCCOC1C(C(O)CO)OC2OC(C)(C)O[C@@H]21 (stereo not given in full),4.3
COC(=O)N1CCC2(CCN(Cc3ccccc3OC)CC2)CC1,4.7
Cc1ccccc1-c1cc(N(C)Cc2ccco2)ncn1,1.4
COCC(=O)N1CCC2(CC1)CN(Cc1nccs1)C2,1.6
CC(=O)Nc1nc2c(c3c1c(=O)oc1ccccc13)CC(C)CC2 (stereo not given),1.3
C/C1=C/CC(C)(C)/C=C/C/C(C)=C/CC1,-1.4
O=C(O)c1cc2ccccc2c(Cc2cc3ccccc3c(C(=O)O)c2O)c1O (tested in a mixture with another compound),-0.5[24.8 µM]
COc1ccccc1CCn1c(=O)c(CCc2ccccc2)nc2cncnc21,4.8
O=S(=O)(c1ccccc1)N1CCC2(CCCN(Cc3nccs3)C2)CC1,-3.7
CN1CCCN([C@@H](c2ccccc2)c2ccc(Cl)cc2)CC1,0.4[24.8 µM]
Cc1noc(C)c1-c1ccc2ncnc(NCc3ccc4c(c3)OCO4)c2c1,1.3
Cc1ccc(CNC(=O)[C@H](C)[C@H]2C[C@]2(C)[C@H](NC(=O)OCc2ccccc2)c2ccccc2)c(F)c1F,-0.6

Going on with the list:
Molecule,Menin-MLL FL inh
C[Si](C)(C)O[Si](C)(C)C,-4.0
CN(C)c1nc(-c2cccc(C#N)c2)nc2ccccc12,-1.8
CN(Cc1ccco1)c1ccnc(-c2cccc(C#N)c2)n1,0.0
COc1ccc2c(c1)O[C@H](c1ccc3c(c1)OCO3)[C@@H](OC(=O)NCCOc1ccccc1)C2=O,2.1
COCCNc1nc(C)nc2c1nc(-c1ccccc1)n2C1CCN(Cc2ccccc2)C1 (stereo not given),-2.8
C=C1C[C@H](OC(=O)C(C)(O)CCl)C2C(=C)C(=O)O[C@@H]2C2C1C[C@H](O)[C@]2(O)CCl (stereo not given in full),-1.2
CN(CCO)c1nc(N)c2c(N)nc3c(c2c1C#N)CC(=O)N3C1CCCC1,4.6
O=C(O)[C@H](CC(=O)N1C[C@H]2CCCC[C@H]2C1)Cc1ccccc1,3.4
CN=C(NC#N)NCCSCc1csc(N=C(N)N)n1,-5.9&3.6
COC(=O)NC(CC(C)=O)c1cccc(C)c1 (stereo not given),-1.8[11.7 µM]
CC(=O)Oc1c(C)cc(OCC(O)CNC(C)C)c(C)c1C (stereo not given),1.4
COC(=O)CC1C(C)(C)C(=O)C2CC3=C4CC(=O)OC(c5ccoc5)[C@]4(C)CCC3[C@@]1(C)C2=O (stereo not given in full),4.6
COc1ccccc1NC(=O)Nc1nnc(CC(=O)Nc2ccccc2)s1,-2.4
N/C(=N\OC(=O)COc1ccc2ccccc2c1Br)c1cccnc1,-1.8
CCCn1c(-c2ccc(F)cc2)nc2c(N3CCC(N(C)C)C3)nc(C)nc21 (stereo not given),-4.0
COc1ccc(CNc2ncnc3ccc(-c4cccc(NS(C)(=O)=O)c4)cc23)c(OC)c1,1.1
CCSC[C@H](NC(=O)[C@H](C)N)C(=O)N[C@@H](CC(=O)O)C(=O)N[C@H](C(=O)N[C@@H](C)C(=O)N[C@H](C(=O)N[C@@H](CSCC)C(=O)N[C@H](C(=O)N[C@H](C(=O)N[C@@H](Cc1cnc[nH]1)C(=O)N[C@@H](CCCNC(=N)N)C(=O)N[C@@H](CC(C)C)C(=O)N[C@@H](C)C(=O)NCC(=O)N[C@@H](CC(C)C)C(=O)N[C@@H](CC(C)C)C(=O)N[C@@H](CO)C(=O)N[C@@H](CCCNC(=N)N)C(=O)N[C@@H](CO)C(=O)NCC(=O)NCC(=O)N[C@H](C(=O)N[C@H](C(=O)N[C@@H](CCCCN)C(=O)N[C@@H](CC(N)=O)C(=O)N[C@@H](CC(N)=O)C(=O)N[C@@H](Cc1ccccc1)C(=O)N[C@H](C(=O)N1CCC[C@H]1C(=O)N[C@H](C(=O)N[C@@H](CC(N)=O)C(=O)N[C@H](C(=O)NCC(=O)N[C@@H](CO)C(=O)N[C@@H](CCCCN)C(=O)N[C@@H](C)C(=O)N[C@@H](Cc1ccccc1)C(N)=O)C(C)C)[C@@H](C)O)C(C)C)C(C)C)C(C)C)[C@@H](C)O)C(C)C)[C@@H](C)O)[C@@H](C)O,4.4

3 of the compounds above, field by field:
O=C(Nc1ccccc1)[C@@]12C[C@@H]1/C(=N/O)c1ccccc1O2
  Menin-MLL FL inh = 14

CCCc1nc(C(C)(C)O)c(C(=O)OCc2oc(=O)oc2C)n1Cc1ccc(-c2ccccc2-c2nn[nH]n2)cc1
  Menin-MLL FL inh = -0.3

CN1CCN(c2ccnc(-c3ccoc3)n2)CC1
  Menin-MLL FL inh = -8.5

Grouped by structure, the entries above with a thiophene ring, fused or not.
Molecule,Menin-MLL FL inh
CC1(C)Cc2nc3sc4c(N5CCCC5)nnnc4c3cc2CO1,-0.2
Cc1cc2c(c(=O)n1-c1ccccc1)C1O[C@](c3ccsc3)(Cc3ccccc31)O2,13[11.7 µM]
COCCn1c(=O)c(-c2cccs2)nc2cnc(Oc3ccc(OC)cc3)nc21,-1.9

Assay outcomes deposited in PubChem BioAssay by National Center for Advancing Translational Sciences (NCATS).

Some of the compounds tested (hit frequency here may not be typical).
